UUG fidelity = yeast start codon fidelity modulation. S. cerevisiae UUG-firefly luciferase reporter, luminescence/redox ratio. activity score, % at 18.7 µM. 350,000 tested, 0.13% active;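 active = replicate mean at a twofold rise or more, about +100% in these data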;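 also: firefly luciferase made from a UUG start codon reports start codon fidelity; reporter light over untreated wells divided by growth signal over untreated wells; some hits fall short of that in this replicate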
Starred values were filed as active, the others as inactive. These rows are one share of the data (hit frequency here may not be typical).

UUG fidelity	mol
-3	C[C@H](CO)N1C[C@H](C)[C@H](CN(C)Cc2ccc(Oc3ccccc3)cc2)Oc2c(NC(=O)c3ccncc3)cccc2C1=O
-9	C[C@@H]1CN([C@@H](C)CO)C(=O)c2cc(NC(=O)Cn3cnnn3)ccc2O[C@H]1CN(C)C(=O)Nc1ccc2c(c1)OCO2
5	CCN1[C@@H]2c3ccc(C4=CCCCC4)c(=O)n3C[C@H]1[C@H](CO)[C@H]2C(=O)NCCc1ccncc1
-3	Cc1noc(C)c1NC(=O)Nc1ccc2c(c1)C(=O)N([C@@H](C)CO)C[C@H](C)[C@H](CN(C)Cc1ccc(C(=O)Nc3ccccc3N)cc1)O2
8	O=C(NC[C@H]1[C@H](c2ccccc2)[C@@H](CO)N1CC1CC1)C1CC1
-8	Cn1cnc(CCNC(=O)C[C@@H]2CC[C@H]3[C@@H](COC[C@H](O)CN3C(=O)Nc3ccc(F)cc3)O2)c1
-6	CCCC(=O)Nc1ccc2c(c1)OC[C@H](C)N(Cc1cncnc1)C[C@H](C)[C@H](OC)CN(C)C2=O
-1	COc1cccc(S(=O)(=O)N2CCCCN3[C@H](CO)[C@H](c4ccc(-c5cccnc5)cc4)[C@H]3C2)c1
18	O=C(c1cccnc1)N1C[C@@H]2[C@H](c3ccccc31)[C@H](CO)N2C(=O)Nc1ccccc1
-10	CO[C@@H]1CN(C)C(=O)c2cc(NC(=O)Nc3ccc4c(c3)OCO4)ccc2OC[C@H](C)NC[C@@H]1C
-6	CC(C)NC(=O)N1CC[C@@H]2[C@H]1c1cc(C#Cc3ccccc3)ccc1N(C)[C@@H]2CO
-11	Cn1cnc(S(=O)(=O)N2C[C@H](O)COC[C@H]3O[C@@H](CC(=O)NCc4ccc(F)cc4)CC[C@@H]32)c1
16	O=C(C[C@@H]1CC[C@@H]2[C@H](COC[C@H](O)CN2C(=O)Nc2ccccc2)O1)NC1Cc2ccccc2C1
-13	O=C(C[C@@H]1CC[C@@H]2[C@H](COC[C@H](O)CN2C(=O)c2cccnc2)O1)NCc1ccc(-c2ccccc2)cc1
-7	COc1ccc(C(=O)N2C[C@H]3[C@@H](c4ccccc42)[C@@H](CO)N3C(=O)Cc2ccccn2)cc1
-7	O=C(Nc1cc(F)ccc1F)N1CCCCN2[C@H](CO)[C@H](c3ccc(-c4cccnc4)cc3)[C@H]2C1
10	CO[C@H]1CN(C)C(=O)c2cc(NC(=O)Nc3ccccc3)ccc2OC[C@H](C)N(CC2CC2)C[C@@H]1C
-5	CN(C)C(=O)c1cccc(-c2ccc([C@@H]3[C@H]4CN(CCC(F)(F)F)CCCCN4[C@H]3CO)cc2)c1
-2	C[C@@H]1CN([C@@H](C)CO)C(=O)c2cc(NC(=O)Nc3ccc(F)cc3)ccc2O[C@H]1CN(C)S(=O)(=O)c1ccccc1
-3	COCC(=O)N1C[C@@H](C)[C@H](OC)CN(C)C(=O)c2cc(NC(=O)Nc3ccccc3)ccc2OC[C@H]1C
-2	CO[C@H]1CN(C)C(=O)c2cc(NC(=O)NC3CCCCC3)ccc2OC[C@H](C)N(CC2CCOCC2)C[C@H]1C
-17	C[C@H]1CN([C@@H](C)CO)C(=O)c2cc(NC(=O)Nc3ccc(C(F)(F)F)cc3)ccc2O[C@@H]1CN(C)C(=O)Nc1ccc2c(c1)OCO2
-1	O=C(c1ccc2c(c1)OCO2)N1C[C@H]2[C@@H](c3ccccc31)[C@H](CO)N2Cc1ccccc1Cl
32	COCC(=O)N1C[C@@H]2[C@H](c3ccccc31)[C@H](CO)N2C(=O)Nc1ccccc1F
-8	CC=Cc1ccc2n(c1=O)C[C@@H]1[C@@H](CO)[C@H](C(=O)N3CCOCC3)[C@H]2N1CC1CC1 (mixture of isomers)
-17	CO[C@H]1CN(C)C(=O)c2ccc(NC(=O)c3cc(C)on3)cc2OC[C@@H](C)N(CC2CC2)C[C@@H]1C
13	COc1ccc(NC(=O)N2C[C@H](O)COC[C@H]3O[C@@H](CC(=O)NCc4ccccc4OC)CC[C@@H]32)cc1
-6	CO[C@H]1CN(C)C(=O)c2ccc(NC(C)=O)cc2OC[C@H](C)N(Cc2cc(F)ccc2F)C[C@H]1C
-5	C[C@H](CO)N1C[C@H](C)[C@H](CN(C)Cc2ccc(C(=O)O)cc2)Oc2ccc(NC(=O)CCC(F)(F)F)cc2CC1=O
4	CCCC#Cc1ccc([C@H]2[C@H]3CN(C(=O)NC4CCCC4)CCCCN3[C@H]2CO)cc1

At a glance, part of the list above.
UUG fidelity	mol
-3	C[C@H](CO)N1C[C@H](C)[C@H](CN(C)Cc2ccc(Oc3ccccc3)cc2)Oc2c(NC(=O)c3ccncc3)cccc2C1=O
-9	C[C@@H]1CN([C@@H](C)CO)C(=O)c2cc(NC(=O)Cn3cnnn3)ccc2O[C@H]1CN(C)C(=O)Nc1ccc2c(c1)OCO2
5	CCN1[C@@H]2c3ccc(C4=CCCCC4)c(=O)n3C[C@H]1[C@H](CO)[C@H]2C(=O)NCCc1ccncc1
-3	Cc1noc(C)c1NC(=O)Nc1ccc2c(c1)C(=O)N([C@@H](C)CO)C[C@H](C)[C@H](CN(C)Cc1ccc(C(=O)Nc3ccccc3N)cc1)O2
8	O=C(NC[C@H]1[C@H](c2ccccc2)[C@@H](CO)N1CC1CC1)C1CC1
-8	Cn1cnc(CCNC(=O)C[C@@H]2CC[C@H]3[C@@H](COC[C@H](O)CN3C(=O)Nc3ccc(F)cc3)O2)c1
-6	CCCC(=O)Nc1ccc2c(c1)OC[C@H](C)N(Cc1cncnc1)C[C@H](C)[C@H](OC)CN(C)C2=O
-1	COc1cccc(S(=O)(=O)N2CCCCN3[C@H](CO)[C@H](c4ccc(-c5cccnc5)cc4)[C@H]3C2)c1
18	O=C(c1cccnc1)N1C[C@@H]2[C@H](c3ccccc31)[C@H](CO)N2C(=O)Nc1ccccc1
-10	CO[C@@H]1CN(C)C(=O)c2cc(NC(=O)Nc3ccc4c(c3)OCO4)ccc2OC[C@H](C)NC[C@@H]1C

More results follow.
UUG fidelity	mol
5	Cc1cc(C(=O)Nc2cccc3c2O[C@@H](CN(C)S(=O)(=O)c2cccs2)[C@@H](C)CN([C@@H](C)CO)C3=O)n(C)n1
2	CC(C)NC(=O)Nc1ccc2c(c1)CC(=O)N([C@@H](C)CO)C[C@H](C)[C@H](CN(C)Cc1ccc(Oc3ccccc3)cc1)O2
1	CC(=O)N1C[C@@H]2[C@H](c3ccccc31)[C@@H](CO)N2S(=O)(=O)c1ccccc1
-13	O=C(Cc1cccnc1)N1[C@@H](CO)[C@@H]2c3ccccc3NC[C@@H]21
18	CCCNC(=O)N1C[C@@H](O)COC[C@H]2O[C@H](CC(=O)N3CCCCC3)CC[C@@H]21
-1	C[C@H](CO)N1C[C@H](C)[C@@H](CN(C)Cc2ccncc2)Oc2ccc(NC(=O)Nc3ccc4c(c3)OCO4)cc2CC1=O
-2	C[C@H](CO)N1C[C@H](C)[C@H](CN(C)S(=O)(=O)c2ccccc2)Oc2ccc(NC(=O)c3ccncc3)cc2CC1=O
8	COc1ccc(S(=O)(=O)N(C)C[C@H]2Oc3ccc(NC(=O)c4ccncc4)cc3C(=O)N([C@@H](C)CO)C[C@H]2C)cc1
-8	CNC[C@H]1Oc2ccc(NS(=O)(=O)c3ccc(Cl)cc3)cc2CC(=O)N([C@@H](C)CO)C[C@H]1C
1	CN(C)C(=O)c1cccc(-c2ccc3c(c2)[C@@H]2[C@@H](CCN2C(=O)Cc2ccccn2)[C@H](CO)N3C)c1
3	COCC(=O)N1CC[C@@H]2[C@@H](CO)Nc3ccc(-c4cccc(C#N)c4)cc3[C@@H]21
0	Cc1noc(C)c1NC(=O)Nc1ccc2c(c1)C(=O)N([C@@H](C)CO)C[C@H](C)[C@@H](CN(C)S(=O)(=O)c1cccs1)O2
2	C[C@H]1CN([C@@H](C)CO)C(=O)Cc2cc(NS(=O)(=O)c3ccccc3)ccc2O[C@H]1CN(C)Cc1ccc(C(F)(F)F)cc1
-6	N#Cc1cccc(-c2ccc([C@H]3[C@@H](CO)N4CCCCN(Cc5ccccc5F)C[C@@H]34)cc2)c1
5	C[C@H]1CN([C@@H](C)CO)C(=O)Cc2cc(NC(=O)C3CCCCC3)ccc2O[C@@H]1CN(C)C(=O)Nc1ccc2c(c1)OCO2
-6	O=C(C[C@H]1CC[C@@H]2[C@H](COC[C@H](O)CN2Cc2ccccc2)O1)NCCCN1CCOCC1
-2	C[C@H](CO)N1C[C@H](C)[C@H](CN(C)Cc2ccccc2)Oc2ccc(NC(=O)C3CCCCC3)cc2CC1=O
-8	CN1c2ccc(-c3ccc(F)cc3)cc2[C@H]2[C@H](CCN2C(=O)c2ccncc2)[C@H]1CO
-12	Cc1ccc(S(=O)(=O)Nc2ccc3c(c2)C(=O)N([C@H](C)CO)C[C@H](C)[C@@H](CN(C)Cc2ccncc2)O3)cc1
-5	CC(C)NC(=O)Nc1ccc2c(c1)C(=O)N([C@H](C)CO)C[C@H](C)[C@H](CN(C)S(=O)(=O)c1ccc(F)cc1)O2
-4	O=C(c1cnccn1)N1CC[C@@H]2[C@H](CO)Nc3ccc(-c4ccccc4F)cc3[C@@H]21
-12	C[C@H]1CN([C@@H](C)CO)C(=O)c2cccc(NC(=O)c3ccncc3)c2O[C@H]1CN(C)C(=O)Nc1ccc(F)cc1
-2	COc1ccccc1NC(=O)N1CCCCN2[C@H](CO)[C@@H](c3ccc(C#CC4CCCC4)cc3)[C@@H]2C1
17	CCC(=O)N1C[C@@H](C)[C@H](OC)CN(C)C(=O)c2ccc(NC(=O)Nc3cccc(F)c3)cc2OC[C@@H]1C
6	CC(=O)N(C)C[C@@H]1[C@@H](c2ccc(-c3ccccc3F)cc2)[C@@H](CO)N1C(C)=O
20	C[C@@H]1CN([C@H](C)CO)C(=O)Cc2cc(NC(=O)Nc3ccccc3)ccc2O[C@@H]1CN(C)Cc1ccc(C(=O)O)cc1
17	CN(C)CC#Cc1ccc([C@@H]2[C@@H](CO)N3CCCCN(C(=O)C4CCCC4)C[C@@H]23)cc1
7	N#Cc1cccc(-c2ccc([C@@H]3[C@@H](CO)N4CCCCN(C(=O)Nc5ccc(F)cc5)C[C@H]34)cc2)c1
-9	O=C(C[C@H]1CC[C@H]2[C@@H](COC[C@@H](O)CN2C(=O)c2ccccc2)O1)NCc1cccc(F)c1
-11	Cc1ccc(-c2ccc([C@H]3[C@@H](CO)N4CCCCN(C)C[C@H]34)cc2)cc1
-3	CCN(C[C@H]1[C@H](c2ccccc2)[C@@H](CO)N1C(C)=O)C(=O)c1cccc(F)c1
-3	C[C@@H]1CN([C@H](C)CO)C(=O)Cc2cc(N(C)C)ccc2O[C@@H]1CN(C)S(=O)(=O)c1ccc(F)cc1
6	C[C@@H]1CN([C@@H](C)CO)C(=O)c2cc(NS(=O)(=O)c3cccs3)ccc2O[C@@H]1CN(C)C(=O)Nc1cccc2ccccc12
27	C[C@H](CO)N1C[C@H](C)[C@@H](CN(C)Cc2ccc(Oc3ccccc3)cc2)Oc2c(NC(=O)c3ccc(-c4nccs4)cc3)cccc2C1=O
-4	C[C@@H]1CN([C@@H](C)CO)C(=O)Cc2cc(N(C)C)ccc2O[C@H]1CN(C)S(=O)(=O)c1ccc(F)cc1
22	COc1ccccc1NC(=O)N1C[C@H]2[C@@H](c3ccccc31)[C@H](CO)N2CC1CCOCC1
7	C[C@@H]1CN([C@@H](C)CO)C(=O)c2cc(NC(=O)Nc3cccc4ccccc34)ccc2O[C@H]1CN(C)CC1CCCCC1
24	CCCC(=O)Nc1ccc2c(c1)OC[C@H](C)N(Cc1ccc(-c3ccccn3)cc1)C[C@@H](C)[C@H](OC)CN(C)C2=O
-13	C[C@H](CO)N1C[C@H](C)[C@@H](CN(C)S(=O)(=O)c2cn(C)cn2)Oc2c(NC(=O)c3nc4ccccc4s3)cccc2C1=O
-25	C[C@@H]1CN([C@@H](C)CO)C(=O)c2cccc(NC(=O)C3CC3)c2O[C@@H]1CN(C)Cc1ccc(-c2ccccc2)cc1
-1	C[C@@H]1CN([C@H](C)CO)C(=O)c2cc(N(C)C)ccc2O[C@H]1CN(C)S(=O)(=O)c1ccc(F)cc1
15	C[C@H]1CN([C@@H](C)CO)C(=O)c2cccc(NS(=O)(=O)c3ccccc3)c2O[C@@H]1CN(C)C
-1	CCNC(=O)C[C@@H]1CC[C@H]2[C@@H](COC[C@@H](O)CN2C(=O)Nc2ccc(Cl)c(Cl)c2)O1
-12	O=C(c1cnccn1)N1CC[C@@H]2[C@H]1c1cc(-c3ccccc3)ccc1N[C@@H]2CO
10	CCC(=O)N1[C@@H](CO)[C@H](c2ccccc2)[C@@H]1CNC(=O)CN1CCOCC1
-17	Cc1ccc(S(=O)(=O)N2CC[C@@H]3[C@H](CO)N(C)c4ccc(-c5ccc(C#N)cc5)cc4[C@@H]32)cc1
16	COc1ccccc1NC(=O)N1CCCCN2[C@H](C1)[C@H](c1ccc(-c3ccc(C)cc3)cc1)[C@@H]2CO
4	CN1C(=O)c2cc(NS(=O)(=O)c3ccc(F)cc3)ccc2OC[C@@H]2O[C@H](CC(=O)NCC(F)(F)F)CC[C@@H]21
-5	CC(C)NC(=O)N(C)C[C@H]1Oc2ccc(NC(=O)Cc3cn(C)c4ccccc34)cc2C(=O)N([C@H](C)CO)C[C@H]1C
20	C[C@@H]1CN([C@@H](C)CO)C(=O)c2cccc(NS(=O)(=O)c3ccccc3)c2O[C@@H]1CN(C)C(=O)NC1CCCCC1
17	O=C(C[C@H]1CC[C@@H]2[C@H](COC[C@H](O)CN2C(=O)c2ccccc2F)O1)NCc1ccc(Cl)cc1
33	COc1ccc(NC(=O)N(C)C[C@H]2Oc3ccc(NC(=O)NC(C)C)cc3C(=O)N([C@@H](C)CO)C[C@H]2C)cc1
-13	CC(=O)N1[C@@H](CO)[C@@H](c2ccccc2)[C@@H]1CNC(=O)CN1CCOCC1
0	O=C(C[C@@H]1C[C@@H]2c3cc(NC(=O)c4cccnc4)ccc3O[C@@H]2[C@@H](CO)O1)NCc1ccncc1
